Screening data: PubChem BioAssay, National Center for Advancing Translational Sciences (NCATS)
NS1 function inh: blocks influenza NS1 protein function | S. cerevisiae slowed by influenza A NS1, growth recovery by OD600 | Potency, µM (highest dose often 46.1 µM), without a hit: top-dose activity, positive = more growth | hit rate 0.4% among 270,000; further: actives are rising curves; nearly all actives have a fitted effect of over 50% in size
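OD600 was taken as the measure of yeast growth restored by compound in an NS1-expressing S. cerevisiae strain. Cells had been washed out of glucose medium and diluted 1:100 into galactose -URA medium, pH 6.0.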
Cruzain Triton: cruzain (T. cruzi) inhibition with detergent; hit rate 0.43% among 200,000; purified cruzain, Z-FR-AMC fluorescence, 0.01% Triton; P25779; Potency, µM, for inactives: max response, negative = inhibition, actives largely listed as inhibitors; active means well fitted curve in the direction sought with a large enough effect; inconclusive means small, poorly fitted or top-dose-only effect, or another doubt; inactive means no such curve, though single readings can be large; an effect the other way counts as inactive or inconclusive;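 further: plate controls were neutral wells for no effect and buffer without enzyme for full effect; nearly all actives have a fitted effect of over 40% in size; top concentration of the series not given in the record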
Target sequence (P25779 123-467 limits assumed): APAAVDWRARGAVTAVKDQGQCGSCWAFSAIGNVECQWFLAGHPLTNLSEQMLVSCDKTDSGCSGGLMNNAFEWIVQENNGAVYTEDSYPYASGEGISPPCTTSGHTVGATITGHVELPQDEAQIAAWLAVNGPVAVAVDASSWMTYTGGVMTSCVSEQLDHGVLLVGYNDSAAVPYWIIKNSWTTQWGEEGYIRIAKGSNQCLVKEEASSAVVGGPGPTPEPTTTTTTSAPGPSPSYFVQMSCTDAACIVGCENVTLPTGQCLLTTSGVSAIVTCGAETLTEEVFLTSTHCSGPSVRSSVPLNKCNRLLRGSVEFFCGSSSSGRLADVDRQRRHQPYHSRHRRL
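15 min RT preincubation of 1.5 nM cruzain with compound, then 2 uM Z-FR-AMC added; kinetic AMC fluorescence, 60 s delta. Triton X-100 0.01%, pH 5.5.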
MARV entry inh: blocks Marburg virus binding to or entry into cells. Marburg virus pseudotyped entry inhibition, cell reporter; control for the full effect not named in the record; about a third of the inactives were read at about 46 µM. Potency, µM (highest dose often 37.8 µM), for inactives: at the top dose activity change, negative = inhibition, actives largely listed as inhibitors. hit rate 1.8% among 300,000. AID 540276; active = well fitted inhibition curve with a large enough effect; inconclusive = small, poorly fitted or top-dose-only effect, or effect the other way; inactive = flat fitted curve, though single readings scatter; tested in HEK293 cells; about a fifth of its hits are not listed in these tables; further: on the % scale 0 is the no-effect control and ±100 the full control effect; luciferase read-out
RE007 growth inh: less growth of the S. pombe RE007 Vpr strain. AID 651644. S. pombe RE007 Vpr strain, BacTiter-Glo ATP luminescence, 24 h; control for the full effect not named in the record. Potency, µM (series often up to 92.2 µM), without a hit: at the top dose activity change, negative = less growth. hit rate 0.21% among 360,000; active = well fitted falling curve with a large enough effect; inconclusive = small, poorly fitted or top-dose-only effect; inactive = no such curve, though single readings can be large or run the other way;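 further: on the % scale 0 is the no-effect control and ±100 the full control effect; nearly all actives have a fitted effect of over 50% in size; the assay follows cell death caused by Vpr and the record does not say whether a fall means rescue or toxicity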
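Fission yeast strain RE007, carrying one chromosomally integrated HIV-1 vpr copy, was seeded at OD 0.01 in PMG+AL medium with 23 nL pinned compound. After 24 h at 30 °C and 99% humidity, viability was read by BacTiter-Glo luminescence.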
Cruzain inh noDet: inhibitors of Trypanosoma cruzi cruzain without detergent | AID 1476 | hit rate 2.3% among 200,000 | purified cruzain, Z-FR-AMC fluorescence, no detergent | Potency, µM, inactives show max response, negative = inhibition, most hits filed as inhibitors | P25779; active means well fitted curve in the direction sought with a large enough effect; inconclusive means small, poorly fitted or top-dose-only effect, or another doubt; inactive means no such curve, though single readings can be large; an effect the other way counts as inactive or inconclusive;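 further: plate controls were enzyme without inhibitor for no effect and buffer without enzyme for full effect; nearly all actives have a fitted effect of over 40% in size; top concentration of the series not given in the record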
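Purified cruzain at 1.5 nM, pre-incubated 15 min with compound at room temperature in 100 mM sodium acetate pH 5.5, 5 mM DTT, 0.00005% Triton X-100. Reaction started with 2 uM Z-FR-AMC; AMC fluorescence increase over 60 s gives rate.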
2A StopGo: FMDV 2A StopGo reporter, luciferase signal | human cells with a luciferase reporter of 2A StopGo recoding; control for the full effect not named in the record | Potency, µM (highest dose often 57.9 µM), for inactives: at the highest dose signal change, negative = less light | hit rate 1.2% among 410,000 | AID 1159524; active = well fitted falling curve with a large enough effect; inconclusive = small, poorly fitted or top-dose-only effect; inactive = no such curve, though single readings can be large or run the other way; tested in HEK293T cells; further: on the % scale 0 is the no-effect control and ±100 the full control effect; nearly all actives have a fitted effect of over 45% in size; luciferase light after 4 h
Lassa entry inh: blocks Lassa virus binding to or entry into cells; Lassa virus pseudotype entry inhibition, cell reporter; control for the full effect not named in the record; Potency, µM (series often up to 37.9 µM), for inactives: top-dose activity change, negative = inhibition, most hits filed as inhibitors; hit rate 1.2% among 300,000; active means well fitted inhibition curve with a large enough effect; inconclusive means small, poorly fitted or top-dose-only effect, or effect the other way; inactive means flat fitted curve, though single readings scatter; tested in HEK293 cells; further: on the % scale 0 is the no-effect control and ±100 the full control effect; nearly all actives have a fitted effect of over 50% in size; luciferase read-out
SARS PLpro yeast: SARS-CoV PLP inhibition in yeast; hit rate 0.19% among 330,000; S. cerevisiae expressing SARS-CoV PLpro, growth rescue; control for the full effect not named in the record; Potency, µM (highest dose often 32.9 µM), for inactives: at the top dose activity, positive = growth rescue; further: 0% is about no effect; nearly all actives have a fitted effect of over 55% in size; growth read by luminescence after 48 h
Active calls of the source: *; ? = inconclusive; nt = not tested or not shown; & = joins results of further samples; ! = not active in a repeat; [ ] = another dose, or the depositor's remark. Unless noted, the call rests on the fitted dose curve; in most records, active means well fitted rising curve with a large enough effect; inconclusive means small, poorly fitted or top-dose-only effect; inactive means no such curve, though single readings can be large or run the other way. Potency means the concentration at half of the fitted maximal effect.

SMILES | NS1 function inh | Cruzain Triton | MARV entry inh | RE007 growth inh | Cruzain inh noDet | 2A StopGo | Lassa entry inh | SARS PLpro yeast
COc1ccc(CCNC(=O)C2CC(c3ccc(C(F)(F)F)cc3)=NO2)cc1 (stereo not drawn) | -1% | nt | nt | 4% | nt | -23% | nt | 0%
CCCc1sc(N2CCCC(C(N)=O)C2)nc1-c1ccccc1 (stereo not drawn) | -10% | -2.8% | ? | -4% | ? | 2% | -7% | 10%
COc1ccc(NC(=O)CN2CCN(S(=O)(=O)c3ccc(F)cc3)CC2)cc1Cl | -4% | -9.2% | -3% | 5% | 26% | ? | ? | 5%
O=C(Nc1nc2ccccc2[nH]1)c1ccc(F)cc1 | -33% | -4.1% | ? | -22% | 5% | 20µM* | 6.5µM* | 3%
COc1ccccc1CNC(=O)COC(=O)/C=C/c1ccc(OC(F)F)c(OC)c1 | nt | nt | 19% | -11% | nt | -12% | -9% | 1%
COc1ccc(CCNC(=O)CCc2c(C)c3cc4c(C)c(C)oc4cc3oc2=O)cc1 | nt | -1.6% | ? | nt | 5% | 4% | 3%[46.1 µM] | nt
Cc1cccc(C(=O)N[C@H](C(=O)NCCc2ccc(Cl)cc2)C(C)C)c1 | 7% | nt | -17%[46.1 µM] | 1% | nt | -10% | 8%[46.1 µM] | 7%
Cc1cccc(NC(=O)c2cc(-c3ccccn3)nc3ccccc23)c1C | -3% | nt | ? | 3% | nt | 14µM* | ? | 0%
COc1cccc(/C(O)=C2/C(=O)C(=O)N(Cc3ccco3)C2c2ccncc2)c1 (stereo not drawn) | -7% | -2.9% | -1%[46.1 µM] | -2% | -3% | 3% | 3% | -20%
CCCS(=O)(=O)N1CCn2c(nc3ccccc32)C1 | ? | 2.7% | nt | -2% | -7% | 6% | nt | -6%
CN(C)c1ccc(NC(=O)c2ccc3nc[nH]c3c2)cc1 | -1% | nt | nt | 2% | nt | 68%[activator] | nt | 2%
NC(=O)C1CCN(C(=O)COc2ccc3c(c2)oc(=O)c2ccccc23)CC1 | 4% | nt | nt | 6% | nt | 12% | nt | 0%
Cc1cc(C)cc(OCC(=O)NNC(=O)C2CCCO2)c1 (stereo not drawn) | nt | nt | 8%[46.1 µM] | 1% | nt | 1% | nt | 1%
O=c1[nH]c2cc3c(cc2cc1CN(Cc1ccco1)C(=S)NCCCN1CCOCC1)OCCO3 | 0% | nt | ? | -17% | nt | 3% | -26%[46.1 µM] | -1%
O=C(O)CN1C(=O)C2(OCCO2)c2cc(Br)ccc21 | nt | nt | 7% | 3% | nt | 2% | 21% | nt
CCN(CC)c1ccc(Nc2nc(N3CCOCC3)c3ccccc3n2)cc1 | -7% | ? | ? | 15% | -5% | ? | 18µM* | -18%
CCOc1ccc(NC(=S)N(CCOC)C(C)c2ccco2)cc1 (stereo not drawn) | -43% | nt | nt | 0% | nt | 56%[activator] | nt | 6%
N#Cc1ccc(-c2ccccc2)nc1SCC(=O)c1cc2ccccc2oc1=O | 16% | -5.0% | 9% | -7% | 20µM* | 9% | ? | 6%
COc1ccc(Br)cc1CN(C)CC(=O)Nc1cc(Cl)cc(Cl)c1 | -43% | -7.5% | ? | -9% | -2% | ? | 0% | -52%
Cc1ccc(-c2cc3c(n2-c2ccc(C)cc2)CC(C)(C)CC3=O)cc1 | nt | 1.7% | -1%[46.1 µM] | nt | 2% | 0% | 21%[46.1 µM] | nt
CCC(CC)c1nnc(NC(=O)c2cc([N+](=O)[O-])ccc2N2CCCCC2)s1 | -9% | -9.7% | ? | 37% | -8% | 19% | ? | 6%
CCCCOc1ccc(C(=O)Nc2ccc(N3CCN(C(C)=O)CC3)cc2)cc1 | -26% | -0.2% | ? | 11% | ? | -7% | 0% | 13%
Cc1ccc(N(CC(=O)NCC2CCCO2)C(=O)CCC(=O)Nc2ccccn2)cc1 (stereo not drawn) | nt | nt | 0%[46.1 µM] | -6% | nt | 7% | 5% | 1%
CN(CC(=O)N1CCN(c2ccccn2)CC1)S(=O)(=O)c1cccc2nsnc12 | -9% | -4.6% | 0%&22% | 3% | -5% | 0% | 16%&1% | 23%
CC(C)N(C(=O)CSc1nnc(Cn2nnc3ccccc32)n1C)C(C)C | 1% | 8.6% | -4% | 11% | 0% | 1% | 15% | -5%
COc1ccc(Cl)cc1NC(=O)c1noc2c1CCc1ccccc1-2 | nt | -1.5% | -5%[46.1 µM] | nt | -10% | -32% | ? | nt
CCOC(=O)CSc1nc2sc3c(c2c(=O)[nH]1)CC(C)(C)OC3 | 1% | 2.5% | -5% | -2% | -14% | 4% | 20% | 2%
Cc1cc(C)c(S(=O)(=O)NCCCn2ccnc2)c(C)c1 | -2% | 2.5% | -13% | 5% | -17% | 20% | -10% | 26%
COc1ccccc1N1CCN(C(=O)c2cc(C)on2)CC1 | -1% | nt | 16%[46.1 µM] | 17% | nt | 24% | 5%[46.1 µM] | -2%
CCCCC(=O)Nc1ccccc1C#N | 0% | -0.2% | ? | -12% | -4% | 0% | ? | -25%
COc1ccc(C(=O)N(c2ccccn2)C2CCCCC2)c(OC)c1 | nt | nt | ? | 1% | nt | 7% | -5% | -3%
Cc1ccc(S(=O)(=O)N2CCOCC2)c(C)c1NS(C)(=O)=O | 0% | 1.3% | -10% | 28% | 3% | 0% | ? | 7%
O=C(OCc1ccccc1F)c1cc2ccccc2cc1O | -5% | nt | 24%[46.1 µM] | -7% | nt | 15% | ? | -1%
O=C(NCc1n[nH]c(=S)n1-c1cccc(C(F)(F)F)c1)c1ccco1 | 18% | nt | 1%[46.1 µM] | 10% | nt | -9% | 16% | 15%
O=C(N/N=C/C=C\c1ccco1)c1cccs1 | nt | nt | ? | 2% | nt | 29% | -10%[46.1 µM] | 2%
CN(c1ccccc1C(=O)N1CCN(c2ccccc2)CC1)S(C)(=O)=O | 0% | 0.4% | 23% | 15% | 2% | 0% | -10% | -1%
Cc1cc(=O)n2[nH]c(=O)c(N=Nc3ccccc3)c2[nH]1 | 4% | -11% | 19% | -6% | ? | 3% | 2% | -5%
CCCNC(=O)Nc1cc(OC)c(OC)cc1Cc1nccc2cc(OC)c(OC)cc12 | 1% | nt | nt | 0% | nt | -13% | nt | -1%
COc1cccc(C(=O)Nc2nnc(-c3ccc(Cl)cc3)o2)c1 | -88% | nt | nt | -25% | nt | -19% | nt | -10%
O=C1/C(=C/c2ccccn2)SC(=S)N1N1CCOCC1 | 2% | nt | ? | -2% | nt | 8% | 0% | 0%
O=C(O)CC1(CC(=O)O)Nc2ccccc2SC1=O | -3% | -2.7% | -1%[46.1 µM] | 4% | 5% | 6% | -17%[46.1 µM] | nt
Cc1ccc2occ(CC(=O)Nc3ccc(Cl)c(C(F)(F)F)c3)c2c1 | nt | -7.5% | ? | nt | -1% | -4% | 0%[46.1 µM] | nt
CC(C)NC(=O)NC(=O)COC(=O)/C=C/c1ccc2c(c1)OCO2 | -7% | nt | 0%[46.1 µM] | 9% | nt | 3% | -7%[46.1 µM] | 6%
c1ccc(COc2ccc(OCCN3CCCC3)cc2)cc1 | 3% | -3.1% | ? | 2% | -1% | 33%[activator] | 11% | -15%
Fc1ccc(-c2csc(NC(=S)Nc3ccccc3)n2)cc1 | 7% | nt | nt | 2% | nt | 35%[activator] | nt | -1%
CCOC(=O)Cn1c(=O)oc2cc(S(=O)(=O)N(CCN(C)C)Cc3ccccc3)ccc21 | -9% | 0.0% | ? | -16% | 5% | 2% | 4% | 18%
COc1cc(/C=N/NC(=O)c2cc(-c3ccccc3)nc3ccccc23)cc(OC)c1O | 0% | nt | nt | 6% | nt | -2% | nt | 3%
COC(CNC(=O)C(=O)NCC1OCCN1S(=O)(=O)c1ccccc1)OC (stereo not drawn) | nt | nt | 10% | 6% | nt | 5% | ? | nt

No new results follow: 2 of the compounds above.
SMILES | NS1 function inh | Cruzain Triton | MARV entry inh | RE007 growth inh | Cruzain inh noDet | 2A StopGo | Lassa entry inh | SARS PLpro yeast
Fc1ccc(-c2csc(NC(=S)Nc3ccccc3)n2)cc1 | 7% | nt | nt | 2% | nt | 35%[activator] | nt | -1%
CCOC(=O)Cn1c(=O)oc2cc(S(=O)(=O)N(CCN(C)C)Cc3ccccc3)ccc21 | -9% | 0.0% | ? | -16% | 5% | 2% | 4% | 18%

Following part.
SMILES | NS1 function inh | Cruzain Triton | MARV entry inh | RE007 growth inh | Cruzain inh noDet | 2A StopGo | Lassa entry inh | SARS PLpro yeast
Cc1cc([N+](=O)[O-])ccc1NC(=O)CSc1nnc(C)n1C | -6% | nt | 5%[46.1 µM] | 7% | nt | 6% | 10%[46.1 µM] | -4%
Cc1ccc(S(=O)(=O)NCC2CCC(C(=O)N3CCOCC3)CC2)cc1 (stereo not drawn) | 4% | nt | nt | 3% | nt | 5% | nt | 0%
COc1cc(Nc2cc(C)nc3ncnn23)cc(OC)c1OC | 3% | 0.8% | nt | 6% | -3% | -2% | nt | -4%
N#Cc1c(NC(=O)c2ccc(Cn3cc(Br)cn3)o2)sc2c1CCCCC2 | -19% | -1.5% | -30% | -4% | -23% | 0% | 3% | -8%
CN=c1nc(-c2ccccc2)n(-c2ccccc2)s1 | -20% | -4.2% | 14µM*! | -2% | -10% | 0% | 23µM* | nt
CN(C)CCN(C(=O)c1ccc2c(c1)OCCO2)c1nc2ccc(Cl)cc2s1 | nt | nt | -3%[46.1 µM] | -1% | nt | 17% | 7% | 0%
CN1CCN(S(=O)(=O)c2cccc(C(=O)Oc3cccc(C#N)c3)c2)CC1 | nt | nt | 15% | 13% | nt | -6% | 13%[46.1 µM] | -7%
Cc1cc(-n2c(C)cc(C(=O)CSc3nc(N)cc(=O)[nH]3)c2C)no1 | 5% | nt | nt | 10% | nt | ? | nt | 1%
[O-]/[N+](=C\c1ccncc1)c1ccc(Br)cc1 | -80% | -1.6% | ? | 13% | -6% | 23% | -8% | -4%
